ClpP mod = qHTS Assay for Activators of ClpP; Potency, µM (doses to about 57.5 µM), without a hit: at the highest dose activity change, negative = active; purified B. subtilis ClpP, FRET peptide cleavage, 20 min; actives 1.9% (n = 340,000); active = well fitted falling curve with a large enough effect; inconclusive = small, poorly fitted or top-dose-only effect; inactive = no such curve, though single readings can be large or run the other way; also: potency is read from the fitted curve at half-maximal effect; the source files actives as falling curves though it sought activators and does not explain the sign; nearly all actives have a fitted effect of over 65% in size; many hits overshoot -100%
Target sequence (P80244 whole entry, looked up): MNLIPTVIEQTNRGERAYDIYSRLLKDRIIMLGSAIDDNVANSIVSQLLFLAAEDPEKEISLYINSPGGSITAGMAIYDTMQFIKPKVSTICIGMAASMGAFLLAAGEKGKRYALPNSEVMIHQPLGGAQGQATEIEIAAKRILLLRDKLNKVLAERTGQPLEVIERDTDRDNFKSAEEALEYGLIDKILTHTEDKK
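ClpP 10 microg/mL final, pH 8 Tris/KCl buffer with BSA, glycerol, Tween-20; compound pinned in; FRET-FV substrate; RT 20 min; Ex320/Em430; ΔFRET vs ADEP 5.8 microM, DMSO, no enzyme.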
TRPML1 inh = human mucolipin-1 channel inhibition. TRPML1-inducible cells, Ca2+ dye fluorescence, FDSS; stronger effect = lower value; inhibition of EC80 agonist-evoked calcium signal. activity change, negative = inhibition, % (concentration not given with the values). Q9GZU1. actives 0.02% (n = 390,000); in the data active means activity change below about -50%; inconclusive means about -30% to -50%; inactive means above about -30%;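 also: stimulus is agonist 54-4 at its EC80 concentration; % is scaled to controls: 0 for no effect and ±100 for the full control effect; compound concentration not given in the record; the text of the record puts the active cut at -80%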
Target sequence (Q9GZU1 whole entry, looked up): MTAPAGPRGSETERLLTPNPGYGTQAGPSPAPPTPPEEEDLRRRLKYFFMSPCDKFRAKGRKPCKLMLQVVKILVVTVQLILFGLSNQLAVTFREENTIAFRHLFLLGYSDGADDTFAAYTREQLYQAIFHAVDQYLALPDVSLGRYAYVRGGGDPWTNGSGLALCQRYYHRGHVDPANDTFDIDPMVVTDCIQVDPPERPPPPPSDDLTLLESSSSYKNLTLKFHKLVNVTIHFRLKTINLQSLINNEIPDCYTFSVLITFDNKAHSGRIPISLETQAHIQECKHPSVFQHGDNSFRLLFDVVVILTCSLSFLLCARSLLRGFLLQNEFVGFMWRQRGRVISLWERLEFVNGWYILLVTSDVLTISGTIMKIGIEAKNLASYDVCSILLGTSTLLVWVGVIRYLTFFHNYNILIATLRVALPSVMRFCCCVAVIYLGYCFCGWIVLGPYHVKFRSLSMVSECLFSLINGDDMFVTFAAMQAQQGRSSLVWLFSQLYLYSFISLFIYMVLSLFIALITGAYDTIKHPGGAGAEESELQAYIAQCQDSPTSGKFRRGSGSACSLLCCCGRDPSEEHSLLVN
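TRPML1-DL cells, Tet-induced overnight (~16 h, 37 °C) at 1,500 cells/well, were loaded with Ca8 no-wash dye plus quencher for 45-90 min at room temperature. Compounds were pinned during FDSS kinetic reading; agonist 54-4 at EC80 (4 uM final) then added.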
gsp antagonist = gsp mutant antagonism; gsp-mutant cells, cAMP HTRF, 30 min; control for the full effect not named in the record; Potency, µM (series often up to 76.9 µM), without a hit: at the top dose activity change, negative = inhibition, hits mostly inhibitors; actives 0.4% (n = 340,000); AID 624288; active = falling curve of any shape with a large fitted effect; inconclusive = falling curve, mostly with a smaller effect; inactive = flat or rising curve; cell line not stated here;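 also: intracellular cAMP measured with PDE inhibitor Ro 20-1724 present during compound exposure; potency is read from the fitted curve at half-maximal effect; % is scaled to controls: 0 for no effect and ±100 for the full control effect; nearly all actives have a fitted effect of over 65% in size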
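Measurement of cellular cAMP by homogeneous time-resolved fluorescence following a 30 min compound exposure at 37C. The PDE inhibitor […] was present throughout; the assay buffer was DPBS with 0.05% BSA and 0.005% Tween 20.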
Menin MLL FP FL = displaces fluorescein MLL peptide from human menin. 290,000 tested, under 10 active. FP activity change, % at 61.4 µM. Fluorescence polarization, fluorescein-MLL peptide displacement from menin; inconclusive = falling polarisation curve, or a change in total fluorescence; inactive = total fluorescence flat and polarisation flat or rising; no compound was filed as active; the % refers to the polarisation; negative = inhibition;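 also: % of control where 0% means no effect; inhibitors lower the polarisation; unlabelled MLL peptide was the positive control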
TRPML1 agonist = human mucolipin-1 channel agonism; activation, % (test concentration not listed); TRPML1-expressing cells, Ca2+ dye fluorescence, FDSS; host cell line not named in the record; reference of the full effect not given here; Q9GZU1; actives 0.12% (n = 410,000); AID 624414; in the data active = activation above about 50%; inconclusive = about 30% to 50%; inactive = below about 30%; also: 0% is about no effect; the text of the record puts the active cut at 80%
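Calcium fluorescence on an FDSS kinetic reader gave the read-out. Tet-induced TRPML1-DL cells were plated overnight, dye-loaded (Ca8 with quencher, 45-90 min, room temperature, dark), then read 110 s after compound addition, and again 110 s after 4uM final 54-4 (EC80).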
gsp ag = agonists of gsp mutant (McCune-Albright syndrome). Potency, µM (highest dose often 76.9 µM), for inactives: at the highest dose activation (cAMP increase), usual class: activators. actives 0.13% (n = 340,000). gsp mutant cells, cAMP HTRF, 30 min; control for the full effect not named in the record; active = well fitted activation curve with a large enough effect; inconclusive = small, poorly fitted or top-dose-only effect, or another doubt; inactive = no such curve, though single readings can be large or run the other way; cell line not stated here;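 also: phosphodiesterase inhibitor Ro 20-1724 added with compounds to block cAMP breakdown; potency is read from the fitted curve at half-maximal effect; nearly all actives have a fitted effect of over 60% in size; about a fifth of the inactives were tested at one dose only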
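Cells stably selected in G418 were plated at 2000/well, grown 16-24 hr, then given compounds in DMSO with the PDE inhibitor […] (300 uM solution added) for 30 min at 37C; cAMP was read by HTRF.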
* = called active by the depositor; u = inconclusive; x = not tested or not shown; [ ] = dose if it differs, or a comment.

SMILES | ClpP mod | TRPML1 inh | gsp antagonist | Menin MLL FP FL | TRPML1 agonist | gsp ag
O=C(CCCCCN1C(=O)[C@@H]2Cc3ccccc3CN2C1=O)NCCc1ccccc1 | -1.9% | 3 | -17% | x | -0.6 | 10%
CCOc1ccc(NCc2cccn2-c2nnc(N3CCC(C(=O)NCCCN4CCCCC4C)CC3)s2)cc1 (configuration not stated) | 1.2% | 12 | -3% | 6.3 | 0.9 | -55%[inhibitor]
Cn1c(Oc2ccccc2NCc2cc(Br)ccc2O)cc(=O)n(C)c1=O | 2.1% | -18 | -4%[15.4 µM] | 2.5 | 2.3 | -10%
C[C@]12c3[nH]c4ccccc4c3CCN1C(=O)C(CC(=O)NCCCn1ccnc1)C[C@@H]2C(=O)N1CCCCC1 (some centres not stated) | -2.6% | -8 | 7% | x | -0.4 | x
Cc1oc(-c2ccc(Cl)cc2)nc1CN1CCCC(C(=O)NCCCN2CCOCC2)C1 (configuration not stated) | -5.8% | -5 | 5% | -2.8 | -0.4 | u
COc1ccc(NC(=O)COC(=O)C2C3CC4OC(=O)C2C4C3)cc1 (configuration not stated) | x | 12 | 4% | -5.5 | 1.2 | 19%
CC(C)(C)c1ccc(C(=O)NC(=O)CSc2n[nH]c(N)n2)cc1 | -2.3% | 12 | 0% | x | 2.1 | u
CC(NC(=O)COC(=O)CCc1nc(=O)c2ccccc2n1C)c1ccccc1 (configuration not stated) | x | 2 | 4% | 6.1 | -0.1 | 2%
Cc1nnc2sc(-c3ccncc3)nn12 | 4.1% | 7 | 9% | -0.1 | 0.0 | u
CCCN(C(=O)CSc1nnnn1C)c1c(N)n(Cc2ccccc2)c(=O)[nH]c1=O | -1.7% | -9 | 9% | -0.5 | -0.1 | -4%
CCOC(=O)CC1CCCCN1C(=O)c1ccc2nc(CCOC)oc2c1 (configuration not stated) | 0.0% | 10 | 17% | x | -0.2 | 25%
O=C(COC(=O)c1cc(S(=O)(=O)N2CCCC2)ccc1O)Nc1ccccc1Br | u | 55 | -6% | x | 1.5 | -6%
COCCCN1CCc2nc(SCC(=O)Nc3ccc(C)c(Cl)c3)[nH]c(=O)c2C1 | -13% | -29 | x | x | 0.7 | x
CCn1nnnc1SCC(=O)Nc1sc(C)c(C)c1C#N | -0.8% | 16 | -9% | 0.4 | -1.0 | -49%[inhibitor]
Cc1cccc(Nc2nc(OCC#N)nc(N(C)C)n2)c1 | x | -9 | 3% | 0.0 | 1.8 | -45%[inhibitor]
CN(CCc1ccccc1)C(=O)c1cccc(NC(=O)Cc2cccc(NC(=O)C3CCN(C(=O)c4ccccc4)CC3)c2)c1 | 0.5% | 74 | 7% | x | 1.8 | x
COc1cccc2sc(N3CCN(c4nc5ccccc5s4)CC3)nc12 | 1.5% | -5 | 4% | 4.4 | 0.8 | 24%
CCc1nn2c(=O)cc(COC(=O)c3cccs3)nc2s1 | -3.5% | -18 | x | x | 1.4 | x
O=C(CN(c1ccc(F)cc1)S(=O)(=O)c1ccc2c(c1)OCCO2)Nc1ccccc1 | -2.6% | -15 | u | -0.2 | 1.0 | u
CCOc1ccc2nc(S(=O)(=O)NC(=O)C3(C)CCN3C(=O)c3cccc(F)c3)sc2c1 (configuration not stated) | -26% | 12 | x | x | 0.5 | x
CCc1cccc(NC(=O)C2CCN(S(=O)(=O)c3ccc(Br)s3)CC2)c1 | -3.4% | -1 | x | x | 2.3 | x
Cc1cccc(-c2sc(Nc3ccccc3)n[n+]2-c2ccc(F)cc2)c1 | -1.4% | 4 | 1% | 1.4 | 0.0 | -15%
COCc1cc(C)nc2sc3c(c12)NC(c1ccccc1C(=O)O)N(c1ccc(OC)cc1)C3=O (configuration not stated) | -4.3% | 18 | x | x | -0.1 | x
N#Cc1c(-c2ccccc2)nc(-c2ccccc2)nc1N1CCOCC1 | u | -3 | -4% | 2.4 | 1.2 | 12%
COc1ccc(/C=C(\NC(=O)c2ccccc2)C(=O)N2CCN(C)CC2)cc1OC | x | -1 | 16% | 4.1 | 0.0 | -9%[15.4 µM]
Further results:
SMILES | ClpP mod | TRPML1 inh | gsp antagonist | Menin MLL FP FL | TRPML1 agonist | gsp ag
Cc1ccc(C2(C)NC(=O)N(CC(=O)Nc3ccccc3N3CCCCC3)C2=O)cc1 (configuration not stated) | -1.4% | 4 | -2% | x | 2.8 | 8%[15.4 µM]
COc1ccccc1C1=NOC(Cn2c(=O)c3c(ncn3C)n(C)c2=O)C1 (configuration not stated) | -5.3% | -2 | 2% | 0.5 | 0.7 | -4%
O=C(c1cccc(Cl)c1)N1CCN(Cc2ccc3c(c2)OCO3)CC1 | 0.4% | -17 | 9% | 4.1 | 0.3 | 0%
CC(=O)Nc1ccc(OCC(O)Cn2cncn2)cc1 (configuration not stated) | -3.0% | -8 | -12% | -2.5 | 0.2 | -7%[15.4 µM]
Cc1ccc2[nH]c(-c3ccccc3)c(CN(C)C)c(=O)c2c1 | -3.3% | 7 | -7% | 2.6 | 1.8 | u
O=Cc1c(C(=O)O)n(CC(=O)O)c2ccccc12 | -6.1% | 13 | 6% | 4.5 | 1.0 | 3%
N#C/C(=C\C=C\c1ccccc1)C(=O)NCc1cccnc1 | 1.2% | -3 | -12% | -1.3 | -1.3 | -3%[15.4 µM]
CCN(CC)CCn1c(C)nc2ccccc21 | x | -8 | 7% | -6.0 | 0.9 | -4%[15.4 µM]
O=C(CN1C(=O)NC2(CCCC2)C1=O)Nc1nc2ccc(F)cc2s1 | -1.2% | 7 | 5% | x | -0.2 | -4%
N#Cc1c2ncn(CC(=O)c3ccc(Br)cc3)c(=O)c2c2n1CCC2 | -1.3% | u | 15% | 1.4 | -0.7 | 0%
CCCc1cc(=O)[nH]c(/N=C(/NC(=O)C(C)N2C(=O)c3ccccc3C2=O)Nc2ccccc2)n1 (configuration not stated) | -8.7% | -13 | -22% | 1.7 | 1.6 | 12%
Cc1ccc(NCc2ccncc2)c(Br)c1 | 1.3% | -12 | -8% | 0.7 | -0.6 | 12%[15.4 µM]
CN(C)C(=O)CSc1nc2ccccc2n1CC(=O)N1CCN(c2ccccc2)CC1 | 2.4% | -2 | -4% | 2.3 | -1.2 | 1%
Cc1ccc(/C=N/NC(=O)CN2CCN(Cc3ccccc3)CC2)o1 | -1.3% | 41 | 1% | 0.5 | 0.8 | -5%
CCC(C)(C)n1nnnc1CN1CCc2ccccc21 | 0.6% | -2 | u | 3.7 | -1.4 | -3%
COC(=O)c1ccc2c(=O)n(CCN3CCOCC3)c(SCC(=O)c3ccccc3)nc2c1 | -1.9% | 11 | 2% | 0.0 | 0.5 | u
CCc1cccc(OCCOCCN2CCCC2)c1 | -0.3% | 22 | 10% | 1.6 | 0.3 | -15%
Cc1c(-c2ccc(Cl)cc2)[n+](=O)c(-c2ccccc2)cn1[O-] | 1.0% | -16 | 9% | 0.8 | 3.9 | -21%
Cc1ccc(S(=O)(=O)/N=C(/NNC(=O)c2cccc(Cl)c2)c2ccccc2)cc1 | x | 11 | -16% | -4.7 | 1.3 | -8%
Cc1ccc(-c2n[nH]c(=S)n2C)cc1 | -14% | -3 | -1% | -2.9 | -1.4 | u
CC(C)Cn1cnc2c(SCc3ccccn3)nc(N)nc21 | x | 6 | 3% | x | 0.1 | u
CCCOc1ccc(NC(=O)C(=O)NCCCN2CCOCC2)cc1 | 0.4% | 7 | x | x | 0.4 | x
Cc1ccc(NC(=O)CC2SC(=Nc3ccc(O)cc3)NC2=O)cc1 (configuration not stated) | x | 6 | 9% | -1.5 | 2.1 | -3%[15.4 µM]
CN1CCN(CC#CCn2c3ccccc3c3ccccc32)CC1 | -12% | -7 | 3% | 6.7 | 1.6 | 17%
COC(=O)C(NC(=O)CCc1nnc2ccc(N3CCC(C)CC3)nn12)C(C)C (configuration not stated) | -0.5% | -1 | -4% | 24 | 1.6 | -13%
(list continues)
SMILES | ClpP mod | TRPML1 inh | gsp antagonist | Menin MLL FP FL | TRPML1 agonist | gsp ag
COc1ccc(OCC(=O)Nc2ccccc2N2CCN(C)CC2)cc1 | x | 17 | 18% | -3.8 | -0.5 | -5%[15.4 µM]
COc1ccccc1N/C(N)=N/c1nc(C)cc(C)n1 | 0.8% | x | 15% | 2.3 | x | 4%
COc1ccc(N(CC(=O)N/N=C/c2ccc3c(c2)OCO3)S(=O)(=O)c2ccc(NC(C)=O)cc2)cc1 | -6.1% | -14 | -12% | 1.5 | 2.8 | u
O=C(Nc1ccc2nc(SCC(=O)N3CCCc4ccccc43)sc2c1)c1cccc(Cl)c1 | 14µM* | 1 | x | x | 1.3 | x
CC(=O)NS(=O)(=O)c1ccc(NC(=O)c2oc3c(Cl)cccc3c2C)cc1 | x | 0 | 3% | 2.5 | -1.0 | 0%[15.4 µM]
Cc1ccccc1OCC(=O)Nc1ccccc1N1CCOCC1 | 2.2% | -2 | -5% | 2.2 | 14 | -73%[inhibitor]
CN(c1ccccc1)c1nc(N)c([N+](=O)[O-])c(N2CCCC2)n1 | -1.3% | x | 6% | -1.7 | x | 1%
CCN(CC)CCNC(=O)c1cc(Sc2nnc(C)s2)nc2ccccc12 | -7.5% | 9 | 19% | -0.6 | 2.2 | 0%
COc1ccc(NC(=O)CN(C)C(=O)CCc2c[nH]c3ccccc23)cc1 | 1.1% | 17 | 13% | 0.4 | -1.4 | -3%[15.4 µM]
COc1cc(OC)c(C(=O)OCC(=O)c2cc(C)n(CC3CCCO3)c2C)cc1OC (configuration not stated) | x | 26 | -4% | 0.3 | -0.6 | -2%[15.4 µM]
CC(=O)Nc1ccc(NC(=O)C(C)OC(=O)CC23CC4CC(CC(Br)(C4)C2)C3)cc1 (configuration not stated) | x | 2 | 1% | x | 0.1 | -25%
NC(=O)c1sc2nc3c(cc2c1N)CCC3 | -3.3% | 21 | 2% | -3.4 | -0.9 | -1%
Cn1c(=O)cc(OCCCC(=O)NCc2ccccn2)c2ccccc21 | -9.1% | -19 | 3% | 0.6 | 0.5 | -1%
CCOC(=O)c1cc(C(C)=O)c(=O)[nH]c1C | -8.1% | -11 | -8% | 0.0 | 0.1 | -22%
Cc1ccc(C(c2c(NC(=O)c3ccco3)sc(C)c2C)N2CCOCC2)cc1 (configuration not stated) | -6.4% | 7 | x | x | 0.8 | -30%
COc1ccccc1-n1c2c(cc(C(=O)N3CCC(C)CC3)c1=O)C(=O)CC(C)(C)C2 | 0.0% | 17 | 8% | 4.8 | 1.0 | -1%

Some of these compounds in order of their number in Menin MLL FP FL, falling.
compound	Menin MLL FP FL
COc1ccccc1N/C(N)=N/c1nc(C)cc(C)n1	2.3
CCOC(=O)c1cc(C(C)=O)c(=O)[nH]c1C	0.0
CCN(CC)CCNC(=O)c1cc(Sc2nnc(C)s2)nc2ccccc12	-0.6
